TRPML1 agonist: activates the human TRPML1 channel; Q9GZU1; TRPML1-expressing cells, Ca2+ dye fluorescence, FDSS; host cell line not named in the record; reference of the full effect not given here; activation, % (test concentration not listed); 0.12% of 410,000 active; AID 624414; in the data active = activation above about 50%; inconclusive = about 30% to 50%; inactive = below about 30%; note: 0% is about no effect; the text of the record puts the active cut at 80%
Target sequence (Q9GZU1 whole entry, looked up): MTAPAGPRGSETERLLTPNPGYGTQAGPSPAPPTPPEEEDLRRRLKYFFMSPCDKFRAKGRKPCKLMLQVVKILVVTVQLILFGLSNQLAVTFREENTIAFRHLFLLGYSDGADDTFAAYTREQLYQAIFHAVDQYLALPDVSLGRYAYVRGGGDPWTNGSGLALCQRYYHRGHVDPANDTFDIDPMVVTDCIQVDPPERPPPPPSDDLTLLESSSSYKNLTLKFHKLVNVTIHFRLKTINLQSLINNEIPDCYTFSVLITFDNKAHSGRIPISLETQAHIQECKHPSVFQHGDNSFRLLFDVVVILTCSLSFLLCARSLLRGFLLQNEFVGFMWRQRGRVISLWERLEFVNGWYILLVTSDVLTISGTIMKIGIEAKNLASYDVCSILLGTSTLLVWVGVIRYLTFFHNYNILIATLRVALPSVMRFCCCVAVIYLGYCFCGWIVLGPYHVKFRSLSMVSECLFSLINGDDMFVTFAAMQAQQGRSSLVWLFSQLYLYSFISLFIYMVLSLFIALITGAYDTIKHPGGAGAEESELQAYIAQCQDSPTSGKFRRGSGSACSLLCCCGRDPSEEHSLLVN
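TRPML1-DL cells, Tet-induced overnight (~16 h, 37 degrees C), loaded 45-90 min at room temperature with Ca8 no-wash calcium dye plus quencher. FDSS fluorescence: 10 s baseline, compound pin-transfer, 110 s agonist read, then EC80 54-4 (4uM final) and 110 s antagonist read.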
ClpP mod: qHTS Assay for Activators of ClpP. AID 651965, 2013. ATP-dependent Clp protease proteolytic subunit (Bacillus subtilis (strain 168)), P80244. 1.9% of 340,000 active. Potency, µM (highest dose often 57.5 µM), without a hit: at the highest dose activity change, negative = active. purified B. subtilis ClpP, FRET peptide cleavage, 20 min; active = well fitted falling curve with a large enough effect; inconclusive = small, poorly fitted or top-dose-only effect; inactive = no such curve, though single readings can be large or run the other way; note: potency is the fitted concentration of half-maximal effect; the source files actives as falling curves though it sought activators and does not explain the sign; nearly all actives have a fitted effect of over 65% in size; many hits overshoot -100%
Target sequence (P80244 whole entry, looked up): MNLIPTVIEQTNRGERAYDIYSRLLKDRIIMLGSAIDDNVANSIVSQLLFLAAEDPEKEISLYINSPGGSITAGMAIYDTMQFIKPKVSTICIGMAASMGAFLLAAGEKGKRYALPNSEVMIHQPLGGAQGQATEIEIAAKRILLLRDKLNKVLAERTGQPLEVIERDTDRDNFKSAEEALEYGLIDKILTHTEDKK
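ClpP 10 microg/mL final, pH 8 Tris/KCl buffer with BSA, glycerol, Tween-20; compound pinned in; FRET-FV substrate; RT 20 min; Ex320/Em430; ΔFRET vs ADEP 5.8 microM, DMSO, no enzyme.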
* hit, by the source's call; ? = inconclusive.

canonical_smiles | TRPML1 agonist | ClpP mod
CC1(C(=O)NCc2cccs2)CCN1CCc1ccccc1 (stereo not given) | -1.2 | -0.1%
CNc1ncnc2c1ncn2[C@H]1CN(Cc2ccncc2)C[C@@H](CO)O1 | -0.3 | -0.7%
CCCc1ccc(C(O)c2ncc(-c3cccc(F)c3)[nH]2)cc1 (stereo not given) | -0.7 | 0.8%
COc1ccccc1CNc1nc(NCc2ccc(NC(C)=O)cc2)c2sccc2n1 | 0.1 | -12.8%
CN(C)CCCNc1cc(N2CCN(C)CC2)ncn1 | -0.5 | -0.6%
CCCCCCCCNc1ccc(/C=C/c2ccnc3ccccc23)cc1 | 0.3 | 0.5%
Cc1ccccc1-c1nc(NC(C)C)nc2ccsc12 | 0.0 | 4.8%
Cc1cccc(S(=O)(=O)NC(=O)C2(C)CCN2C(=O)C/C=C/c2ccccc2)c1 (stereo not given) | -0.4 | -1.9%
O=C(Oc1ccccc1)c1cc(O)c(O)c(O)c1 | -0.2 | -15.2%
CC1=C(C(=O)N2CCOCC2)CC(CC(=O)NCCc2ccccn2)C(=O)N1CCCN1CCCC1=O (stereo not given) | -0.9 | 0.3%
O=c1cc(CCc2ccccc2)[nH]c(=O)[nH]1 | -0.2 | 3.1%
O=C(NCc1ccccc1Br)c1cccs1 | -1.0 | -0.7%
CC(C)N1CCC(C)(C(=O)Nc2cc(-c3ccccc3)nn2C)C1 (stereo not given) | -0.2 | -3.3%
CCOC(=O)c1c(C)oc2c1c(/C=N/c1ccccn1)c(O)c1ccccc12 | -0.1 | -5.3%
COC(=O)c1ccc2nc(-c3ccco3)c(Cc3cccc(Cl)c3)n2c1 | 0.4 | -6.6%
OC(c1ccc(Cl)c(Cl)c1)c1ncc(-c2ccccc2F)[nH]1 (stereo not given) | -1.2 | -0.5%
O=C(O)CCN(CCC(=O)O)c1ccc(/C=C/c2ccnc3ccccc23)cc1 | 19.7 | 0.5%
C[C@@H](c1ccccc1)N1C[C@@H](COCc2ccccc2)Oc2cc(N3CC[C@@H](N(C)C)C3)ccc2S1(=O)=O | -0.2 | ?
CCOC(=O)C1=CCC(c2ccccc2C)N(S(=O)(=O)c2ccc(C)cc2)C1 (stereo not given) | 0.5 | -5.8%
COc1ccc(-c2coc3c(C(=O)NCC4CCOCC4)cccc23)c(C)c1 | -0.7 | -7.5%
Brc1ccc2nc(C3CCCCC3)c(Cc3ccsc3)n2c1 | -0.8 | -3.2%
COc1ccc(Cl)cc1-c1noc([C@@H]2O[C@H](CO)[C@@H](O)[C@H]2O)n1 | -0.1 | -10.6%
O=S1(=O)CC(N2CC=CC2)CN1Cc1cn(Cc2ccccc2)nn1 (stereo not given) | 0.0 | 1.2%
CC(C)CNC(=O)c1cccc2c(-c3cccc(C(N)=O)c3)coc12 | -0.8 | -5.9%
CCOC(=O)N(C)c1c(CC)nc2c(OCc3ccc(C(F)(F)F)cc3)cccn12 | -1.3 | 0.4%
C[C@@H]1CN([C@H](C)CO)C(=O)CCCn2cc(nn2)CO[C@H]1CN(C)C(=O)c1ccncc1 | -0.1 | ?
CC(=O)NC(Cc1ccc(I)cc1)C(=O)NCC(N)C(=O)c1ccccc1 (stereo not given) | 0.6 | -1.0%
CC(=O)Nc1ccc(-c2ccnc3c2CC(C(=O)NCCC(F)(F)F)O3)cc1 (stereo not given) | -0.6 | 4.7%
CC(C)[C@@H]1Cc2[nH][nH]c(=O)c2[C@H](CCc2ccccc2)O1 | -0.9 | -0.9%
COCCNC(=O)C1CCCN(C(=O)c2cc(C)nn2C(C)(C)C)CC1 (stereo not given) | -0.4 | 2.0%
Cc1cc(C)cc(Cn2cc(CN3CC(N(C)C)CS3(=O)=O)nn2)c1 (stereo not given) | -0.4 | -1.9%
O=C1NC[C@H](CCCCN2C[C@H](Cc3ccc(O)cc3)N(CCC3CCCCC3)C(=O)C2=O)N(CCc2ccc(O)cc2)C1=O | -0.4 | 2.4%
C1=Nc2ccccc2/C1=C/c1c[nH]c2ccccc12 | 1.8 | -16.5%
C[C@@H]1O[C@H](C2CCCCC2)Cc2[nH][nH]c(=O)c21 | -0.4 | -2.2%
COc1ccccc1CNC(=O)c1cc(-c2cc(F)ccc2OC(C)C)n[nH]1 | -0.4 | -15.1%
COc1ccc(CNC(=O)C2Cc3c(-c4cccc(C(C)=O)c4)ccnc3O2)cc1OC (stereo not given) | -1.2 | 2.7%
CC(CSC(=O)c1ccccc1)C(=O)N1c2ccccc2CC1C(=O)O (stereo not given) | -1.0 | -3.3%
O=C(NCc1cccnc1)c1cc(C2CCCCN2C(=O)CCCc2ccccc2)on1 (stereo not given) | -1.0 | -3.3%
CCOC(=O)C1(C)CCCN(C(=O)c2ccccc2F)C1 (stereo not given) | -0.7 | -0.8%
NNC(=O)CNC(=O)Nc1n[nH]c(=S)s1 | -0.7 | -1.8%
CN(C)c1ncnc2c1ncn2[C@H]1CN(C2CCCC2)C[C@@H](CO)O1 | -0.3 | 0.5%
Cc1c2ccccc2cc[n+]1C | -0.2 | 4.7%
CC(=O)Nc1ccc(C(=O)N2CCCCC2c2cc(C(=O)NCc3ccccc3)no2)cc1 (stereo not given) | -0.9 | 0.4%
CN(C)CCNC(=O)c1cccc(-c2cnc3c(NC=O)cc(-c4ccc(S(C)(=O)=O)cc4)cn23)c1 | -0.4 | -19.9%
COc1cccc(Nc2nc(C(N)Cc3ccc(F)cc3)cs2)n1 (stereo not given) | -0.3 | -2.0%
O=C1NC[C@H](CCCCN2CCN(CC3CCCCC3)C(=O)C2=O)N(CC2CCCCC2)C1=O | -0.5 | -0.5%
O=C(NCc1ccco1)c1cccc(-c2ccc3nccn3c2)c1 | -0.1 | -9.7%
CC1(C)OC(=O)C2=C(C[C@@H](C3CCCC3)O[C@H]2CCc2cccc(Cl)c2)O1 | -0.3 | -1.8%
CC1(C(=O)O)CCCN1C(=O)c1cccc(C(F)(F)F)c1 (stereo not given) | -0.3 | -3.5%
COc1cccc(-c2oc3c(c2-c2ccc(Br)nc2)C(O)CCC3)c1 (stereo not given) | -0.8 | ?
CC(C)NC(=O)C1(C)CCN1Cc1cccc(C#N)c1 (stereo not given) | -0.1 | -0.4%
CCOC(=O)[C@]12CCCC=C1N(Cc1cccc3ccccc13)C(=O)[C@H](CC(=O)NCC13CC4CC(CC(C4)C1)C3)C2 | -0.1 | -3.5%
CC1(C(=O)NS(=O)(=O)c2cccc(OC(F)F)c2)CCN1C(=O)C1CCCCC1 (stereo not given) | -0.1 | 0.6%
CCOc1ccc(CCN2C(=O)C(=O)N([C@@H](CC(C)C)CN3CCC[C@H]3CN3C(=O)C(=O)NC[C@@H]3CC(C)C)C[C@@H]2Cc2ccccc2)cc1 | -0.5 | -1.0%
CC1(C(=O)Nc2ccc(Cl)cc2)Cc2c(-c3cccc(C(F)(F)F)c3)ccnc2O1 (stereo not given) | 0.5 | -9.4%
CN(C)c1c(Br)cc(C=O)cc1Br | -0.6 | 0.8%
CC(C)(C)OC(=O)N1CCN(c2nc(-c3cccs3)nc3ccccc23)CC1 | -0.6 | -10.0%
COc1cc(-c2coc3c(C(=O)NCc4ccncc4)cccc23)ccc1O | -1.1 | -2.6%
Nc1ccn(C2OC(CO)C(O)C2F)c(=O)n1 (stereo not given) | -0.7 | -2.2%
CCOC(=O)C[n+]1cccc(Br)c1 | -0.4 | -1.5%

(more compounds)
canonical_smiles | TRPML1 agonist | ClpP mod
O=C(NCc1cccc(C(F)(F)F)c1)c1ccc2nc([C@H]3C[C@H](O)[C@@H](CO)O3)[nH]c2c1 | 0.1 | 0.2%
CCCCC[C@H](C)N1C[C@@H](COCc2ccccc2)Oc2cc(N3CC[C@H](N(C)C)C3)ccc2S1(=O)=O | 0.0 | -3.4%
COc1ccccc1/C=C/c1nc2ccccc2s1 | -0.6 | -11.4%
Cc1ccc(O/C=C2/Nn3c(nnc3-c3cc(-c4ccccc4)n[nH]3)S2)cc1 | 0.1 | -2.6%
O=[N+]([O-])c1ccc2nc(CO)[nH]c2c1 | -0.4 | 1.2%
CN1CCN(c2ccc(CNC(=O)C3Cc4c(-c5ccccc5Oc5ccccc5)ccnc4O3)cc2)CC1 (stereo not given) | -0.9 | 0.8%
COCCN1C[C@@H](CO)O[C@@H](n2cnc3c(N4CCN(C)CC4)ncnc32)C1 | -0.5 | -4.5%
COC[C@@H]1CCCN1c1ccc2c(c1)O[C@@H](COCc1ccccc1)CN([C@@H](C)c1ccccc1)S2(=O)=O | 0.6 | 14.1µM*
CCCCC[C@@H]1CCCCC[C@@H](O)C[C@H](O)[C@H](O)/C=C/C(=O)O1 | -0.6 | 3.4%
CC(O)(c1cccnc1)c1nc(-c2ccc(F)c(Cl)c2)cs1 (stereo not given) | -1.1 | -1.3%
CCCCCCCCN1C(=O)[C@H](CC(=O)NCCCOC)C[C@@]2(C(=O)OC)CCCCC=C12 | 0.2 | 2.1%
CCCCNC(=O)c1c(N)[nH]c(C(=O)c2ccccc2)c1-c1ccccn1 | -1.0 | -0.2%
Cc1ccccc1-c1cc2nc(Oc3ccc4c(c3)OCO4)n(C)c(=O)c2s1 | -0.8 | -13.6%
CCN(CC)c1ncnc2c1ncn2[C@H]1CN(Cc2cccnc2)C[C@@H](CO)O1 | -0.5 | 1.6%
O=C1NC[C@@H](CCCCN2CCN(CC3CCCCC3)C(=O)C2=O)N(CC2CCCCC2)C1=O | -0.3 | 3.7%
CCOc1ccc(Cl)cc1-c1cc(C(=O)Nc2cc(OC)ccc2OC)[nH]n1 | -0.1 | ?
Cc1cccc(C)c1C(O)c1ncc(-c2ccccc2C(F)(F)F)[nH]1 (stereo not given) | -0.8 | -0.6%
CC(C)Oc1cc(F)ccc1-c1cc(C(=O)NCCCn2ccnc2)[nH]n1 | -0.7 | -5.0%
O=C(Nc1c(-c2ccc3c(c2)OCO3)[nH][nH]c1=O)c1ccccc1 | -0.5 | ?
c1ccc2nc(-c3cc4ccccc4s3)ccc2c1 | -0.5 | ?
CCOC(=O)C1(C)CCN1C(=O)c1cc(F)cc(F)c1 (stereo not given) | -0.2 | -0.6%
CC(=O)OC[C@@H]1CN(Cc2ccccc2)C[C@H](n2ccc3c(N)ncnc32)O1 | -0.4 | -2.0%
CN(C)c1ccc(/C=C/c2ccnc3ccc(N)cc23)cc1 | 9.0 | 2.0%
Clc1ccc(/C=C/c2ccncc2)cc1Cl | -0.6 | 4.3%
CC1(Cc2ccc(OC(F)(F)F)cc2)C(=O)Nc2c(Cl)ccc(Cl)c21 (stereo not given) | 1.6 | 2.0%
Cn1c(NCc2ccccc2)nc2cc(-c3ccccc3)sc2c1=O | -0.6 | ?
CC1(C(=O)NS(=O)(=O)c2ccc3c(c2)CCO3)CCN1C(=O)C1(c2ccc(Cl)cc2)CCC1 (stereo not given) | -0.4 | -2.3%
OC(Cc1ccccc1Br)c1ncc(-c2ccc(Cl)cc2)[nH]1 (stereo not given) | -0.5 | -3.1%
OC[C@H]1O[C@@H](c2nc(-c3ccc4c(c3)CCO4)no2)[C@H](O)[C@@H](O)[C@H]1O | -0.3 | -0.9%
CN(C)c1cccc(CNC(=O)c2ccc3nc([C@H]4C[C@H](O)[C@@H](CO)O4)[nH]c3c2)c1 | -0.3 | -2.3%

Reformatted with values under each structure: 2 of the compounds above.
Each structure is followed by: TRPML1 agonist | ClpP mod
> O=c1cc(CCc2ccccc2)[nH]c(=O)[nH]1
  -0.2 | 3.1%
> O=C(NCc1ccccc1Br)c1cccs1
  -1.0 | -0.7%

Other structures follow:
canonical_smiles | TRPML1 agonist | ClpP mod
Cc1cccc(C)c1-n1nnnc1C1(C)CCC(=O)N1C1CCN(Cc2ccccc2)CC1 (stereo not given) | -0.6 | -1.4%
COc1ccc(CNC(=O)C2Cc3c(-c4ccccc4Oc4ccccc4)ccnc3O2)cc1OC (stereo not given) | -0.8 | 1.9%
O=C1CCCCC(=O)[C@H](OC(=O)c2ccccc2)C[C@H](c2ccccc2)O1 | -0.6 | 0.0%
CC(C)C[C@H]1CNC(=O)C(=O)N1C[C@@H]1CCCN1C[C@H](CC(C)C)N1C[C@H](Cc2ccccc2)N(CCc2ccccc2)C(=O)C1=O | -1.0 | -2.6%
O=C(NCC1CC1)c1ccc2sc([C@H]3C[C@H](O)[C@@H](CO)O3)nc2c1 | -0.1 | -1.5%
Cc1cc2nc(-c3nnnn3C3CCCCC3)c(=O)[nH]c2cc1C | -0.3 | -18.9%
CCOC(=O)c1c(C)nsc1NC(=O)C1(C)CCN1C(=O)CC (stereo not given) | 0.3 | 2.3%
CCCS(=O)(=O)NC(=O)C1(C)CCN(C(=O)c2ccc(C(F)(F)F)nc2C)C1 (stereo not given) | -0.5 | 0.8%
c1ccc2nc3c(cc2c1)CCCC3 | 4.4 | -2.2%
CC(=O)Oc1ccccc1Cn1c(C)c(C(=O)NCCC#N)sc1=O | -0.9 | -0.9%

Arranged by length of the SMILES (largest number first): three of the compounds above
canonical_smiles | TRPML1 agonist | ClpP mod
O=C(NCC1CC1)c1ccc2sc([C@H]3C[C@H](O)[C@@H](CO)O3)nc2c1 | -0.1 | -1.5%
O=C1CCCCC(=O)[C@H](OC(=O)c2ccccc2)C[C@H](c2ccccc2)O1 | -0.6 | 0.0%
c1ccc2nc3c(cc2c1)CCCC3 | 4.4 | -2.2%

The list is partial; the hit share may differ from the screen's.
